# CDC25B CDK2 inh: primary biochemical HTRF screen for blockers of M-phase inducer phosphatase 2 binding to CDK2/cyclin A; HTRF CDC25B-CDK2/CyclinA binding, anti-His/anti-Flag; hits give high values; P30305+P24941; z-score (no concentration beside the values); AID 1259370, 2018; hit rate 0.72% among 94,000;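 also: score is relative to mean and SD of negative controls; strong numbers were not always called active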
# HIV TAR-Tat: TAR RNA-Tat peptide displacers, HIV-1, primary screen, biochemical, FRET, FAM/TAMRA-labeled Tat; HIV-1 TAR RNA, Tat peptide displacement FRET; hits give high values; hit rate 0.6% among 100,000; z-score (no concentration beside the values);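 also: score is relative to mean and SD of negative controls; some compounds called inactive have numbers as strong as hits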
# * = called active by the depositor; . = not tested or not shown.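 The calls were made as follows: active = z-score from 3 up in half or more of its runs; inactive = the rest.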
# Start of the data: the first 2 entries (preview)
[1] O=C(CCSCc1cnn(-c2ccccc2)c1-n1cccc1)N1CCN(C2CCCCC2)CC1
[2] Cc1nc(-c2cccs2)sc1-c1ccc(SCC(=O)Nc2nccs2)nn1

compound no.,1,2
CDC25B CDK2 inh,-2.15,.
HIV TAR-Tat,-0.07,-4.21

# The list itself, from the start:
[1] O=C(CCSCc1cnn(-c2ccccc2)c1-n1cccc1)N1CCN(C2CCCCC2)CC1
[2] Cc1nc(-c2cccs2)sc1-c1ccc(SCC(=O)Nc2nccs2)nn1
[3] Cc1cccc(N2C(=O)NC3CC2(C)Oc2ccc(Cl)cc23)c1 (configuration not stated)
[4] Cc1ccccc1-c1nnc(C2CCN(S(=O)(=O)c3ccc(Br)cc3)CC2)o1
[5] COc1ccc(-c2nc(=S)c3c(n2CCCN(C)C)CC(C)(C)OC3)cc1
[6] COc1ccccc1-c1cc(C(=O)NCc2cccnc2)no1

compound no.,1,2,3,4,5,6
CDC25B CDK2 inh,-2.15,.,0.52,-1.04,-0.77,-1.17
HIV TAR-Tat,-0.07,-4.21,.,0.18,-0.47,.

[7] Cc1ccc(-n2ccn3c(=O)[nH]nc3c2=O)cc1Cl
[8] CCOC(=O)N1CCc2c(sc3[nH]c(=O)n(-c4ccc(Cl)c(Cl)c4)c(=O)c23)C1
[9] Cc1noc2ncnc(NCCCN(Cc3ccccc3)C(C)C)c12
[10] CCOc1ccc2ncc3c(-c4ccc(F)cc4)n[nH]c3c2c1
[11] CCC12CN3CC(CC)(CN(C1)C3c1cccc(C)c1)C2=O (configuration not stated)
[12] CCOc1ccc(NS(=O)(=O)c2ccc3c(c2)NC(=O)C(CC)S3)cc1 (configuration not stated)

compound no.,7,8,9,10,11,12
CDC25B CDK2 inh,-1.71,-0.9,.,-1.71,-1.17,.
HIV TAR-Tat,-0.02,.,0.74,7.77,1.32,-0.07

# As entered above:
# cpd 2 in HIV TAR-Tat is listed with -4.21
# cpd 11 in CDC25B CDK2 inh is listed with -1.17
# cpd 9 in HIV TAR-Tat is listed with 0.74
# cpd 6 in CDC25B CDK2 inh is listed with -1.17
# cpd 4 in HIV TAR-Tat is listed with 0.18
# cpd 3 in CDC25B CDK2 inh is listed with 0.52
# cpd 12 in HIV TAR-Tat is listed with -0.07

# Remaining list, next part
[13] O=C(CC1SC(=O)NC1=O)Nc1ccc(O)cc1 (configuration not stated)
[14] O=S(=O)(c1ccc(Cl)cc1)N1CCC(Cc2ccccc2)CC1
[15] Cc1noc(C)c1S(=O)(=O)N1CCCC1C(=O)NC1CCCC(C)C1C (configuration not stated)
[16] O=C(c1sc2ccccc2c1Cl)N1CCOCC1
[17] O=C(Nc1ccccc1Sc1ncc([N+](=O)[O-])s1)c1cccc(C(F)(F)F)c1
[18] O=C(CN1C(=O)CCSc2ccccc21)N1CCN(Cc2ccc3c(c2)OCO3)CC1

compound no.,13,14,15,16,17,18
CDC25B CDK2 inh,-0.68,-1.01,.,-0.46,-1.78,1.6
HIV TAR-Tat,-0.75,-1.57,2.32,0.52,.,0.71

[19] O=C(c1ccc(=O)[nH]c1)N(Cc1ccco1)C1(C(=O)NC2CCCCC2)CCCCC1
[20] O=C1C(=O)N(CCCN2CCOCC2)C(c2ccc(Cl)cc2)/C1=C(\O)c1ccccc1 (configuration not stated)
[21] CCc1nnc(SCC(=O)Nc2ccc(F)c(Cl)c2)c2cc3sc(C)cc3n12
[22] Cc1cc(-c2ccc(S(=O)(=O)Nc3ccc(F)cc3)s2)on1
[23] Cc1ccc(N2Cc3ccncc3C2=O)cc1C
[24] Cn1cc(-c2cc3n(n2)CCC(=O)N3CCCC(=O)NCc2ccco2)c2ccccc21

compound no.,19,20,21,22,23,24
CDC25B CDK2 inh,-0.26,-1.19,.,.,-1.89,.
HIV TAR-Tat,.,-0.55,2.94,0.43,0.76,1.46

# Full records as entered above. Values in the order: CDC25B CDK2 inh	HIV TAR-Tat
# `CCOc1ccc(NS(=O)(=O)c2ccc3c(c2)NC(=O)C(CC)S3)cc1` (configuration not stated) as listed: .	-0.07
# `Cc1ccccc1-c1nnc(C2CCN(S(=O)(=O)c3ccc(Br)cc3)CC2)o1` as listed: -1.04	0.18
# `O=C(CCSCc1cnn(-c2ccccc2)c1-n1cccc1)N1CCN(C2CCCCC2)CC1` as listed: -2.15	-0.07
# `CCC12CN3CC(CC)(CN(C1)C3c1cccc(C)c1)C2=O` (configuration not stated) as listed: -1.17	1.32
# `Cc1ccc(-n2ccn3c(=O)[nH]nc3c2=O)cc1Cl` as listed: -1.71	-0.02

# (continued)
[25] CCCn1c(=O)c2sccc2n2c(CCCC(=O)NCCOC)nnc12
[26] CC(C)Cc1nc2sc3c(NCC4CCCO4)ncnc3c2c2c1COC(C)(C)C2 (configuration not stated)
[27] COC(=O)C1CCc2ccccc2N1 (configuration not stated)
[28] COc1ccccc1-c1c(C(F)(F)F)oc2cc(OC(=O)c3ccco3)ccc2c1=O
[29] CCOC(=O)c1cc(Sc2n[nH]c(-c3ccccc3)n2)cc(C(=O)OCC)n1
[30] CC(C)Cn1c(SCc2nc(-c3ccc(Cl)cc3)no2)nnc1-c1ccncc1

compound no.,25,26,27,28,29,30
CDC25B CDK2 inh,.,-1.46,-2.92,-0.96,-1.63,-0.09
HIV TAR-Tat,1.18,1.62,.,2.14,.,1.73

[31] CC(=O)Nc1cc([N+](=O)[O-])ccc1Sc1ccccc1N
[32] COC(=O)CN1C(=O)CSc2ccc(S(=O)(=O)N3CCCC3)cc21
[33] CCOC(=O)c1[nH]c2cc(Cl)cc(Cl)c2c1CCC(=O)O
[34] CCCN(CCC)CCNC(=O)Cn1ncc2c1-c1ccccc1OC2
[35] COc1cccc(-c2ccc(-c3noc(-c4cccc(C)c4)n3)c(OC)n2)c1
[36] CC(=O)N1CN(C2CCS(=O)(=O)C2)Cc2c1sc1c2CCCC1 (configuration not stated)

compound no.,31,32,33,34,35,36
CDC25B CDK2 inh,-0.29,.,-0.3,-1.51,-1.88,-0.2
HIV TAR-Tat,.,1,.,0.16,-2.86,.

[37] O=C(O)/C=C/C(=O)Nc1ccc(OCc2ccccc2)cc1
[38] Cn1c(=O)[nH]c(=O)c2c1ncn2CC(O)CO (configuration not stated)
[39] COC(=O)c1cccc(OC(=O)c2sc3ccccc3c2Cl)c1
[40] COc1ccc(S(=O)(=O)Cc2ccccn2)cc1OC
[41] Cc1cc(NC(=O)c2cc3c(=O)n4ccccc4nc3n2C)ccc1Br
[42] C=CCOc1ccc(Br)cc1C1C(C#N)=C(N)Oc2cc3c(cc21)OCO3 (configuration not stated)

compound no.,37,38,39,40,41,42
CDC25B CDK2 inh,-1.75,-3.19,-0.49,-2.49,.,-0.31
HIV TAR-Tat,.,1.62,1.97,1.27,2.13,.

[43] O=c1[nH]ccn(-c2cccc(C(F)(F)F)c2)c1=O
[44] c1csc(CNc2ncnc3nc[nH]c23)c1
[45] CCOC(=O)c1c(NC(=O)c2cc(=O)c3c(C)cc(C)cc3o2)sc2c1CCCC2
[46] CCCCc1nn2c(=O)cc(CSc3n[nH]c(-c4cccc(C)c4)n3)nc2s1
[47] Cc1ccc(C)c(Cn2c(C)c(CNC(C)(C)C)c(C(=O)O)c2C)c1
[48] Cc1nc(Nc2ccccc2F)c2c3c(sc2n1)CCCC3

compound no.,43,44,45,46,47,48
CDC25B CDK2 inh,-1.13,2.3,0.08,.,.,.
HIV TAR-Tat,.,.,-0.03,0.33,2.45,-0.02

[49] Cc1nc2c(c(SC(C)C(=O)Nc3ccc(Cl)cc3)n1)CCC2 (configuration not stated)
[50] CCN(CC)CCn1c(NCc2ccccc2O)nc2ccccc21
[51] CC(=O)N1c2ccc(S(=O)(=O)N3CCCC3)cc2CC1C(=O)N1CCN(c2ccccc2)CC1 (configuration not stated)
[52] COc1ccc(Cl)cc1Nc1nc(-c2cccnc2)cs1
[53] O=C(c1cc(C2CC2)[nH]n1)N1CCN(c2cccc(Cl)c2)CC1
[54] Cn1c2c(c(=O)n(C)c1=O)C(c1cc3c(cc1Br)OCO3)CC(=O)N2 (configuration not stated)

compound no.,49,50,51,52,53,54
CDC25B CDK2 inh,-0.62,-0.26,.,-5.25,.,-0.49
HIV TAR-Tat,0.14,0.23,1.45,.,0.87,.

[55] CCOc1cc(/C=C2\SC(=S)N(Cc3ccccc3)C2=O)ccc1OCc1ccc([N+](=O)[O-])cc1
[56] Cc1nc(N(C)C)cc(N2CCN(C(=O)Nc3ccc(F)cc3)CC2)n1
[57] OC(CN1CCCCC1)Cn1c2c(c3ccccc31)CCCC2 (configuration not stated)
[58] Cc1ccc(NS(=O)(=O)c2ccc3c(c2)NC(=O)CCS3)cc1N(C)C
[59] CCN1c2cc(C)ccc2-n2cccc2C12CCN(C(=O)NCc1ccc(C)cc1)CC2
[60] O=C(c1ccco1)N1c2ncnn2C2(CCCCC2)[C@@H]2CCCC[C@@H]21

compound no.,55,56,57,58,59,60
CDC25B CDK2 inh,-1.34,-0.91,-0.8,.,.,-0.37
HIV TAR-Tat,.,-0.83,.,1.32,0.51,1.67

# Five of the compounds above, bar-delimited.
No. | smiles | CDC25B CDK2 inh | HIV TAR-Tat
56 | Cc1nc(N(C)C)cc(N2CCN(C(=O)Nc3ccc(F)cc3)CC2)n1 | -0.91 | -0.83
57 | OC(CN1CCCCC1)Cn1c2c(c3ccccc31)CCCC2 (configuration not stated) | -0.8 | .
58 | Cc1ccc(NS(=O)(=O)c2ccc3c(c2)NC(=O)CCS3)cc1N(C)C | . | 1.32
59 | CCN1c2cc(C)ccc2-n2cccc2C12CCN(C(=O)NCc1ccc(C)cc1)CC2 | . | 0.51
60 | O=C(c1ccco1)N1c2ncnn2C2(CCCCC2)[C@@H]2CCCC[C@@H]21 | -0.37 | 1.67

# Next section.
[61] CC(CCc1ccco1)NC(=O)C1c2ccccc2C(=O)N(C2CCCC2)C1c1cccs1 (configuration not stated)
[62] CC1(C)C2CCC(C2)C1(C)NC(=S)NCC1CCCO1 (configuration not stated)
[63] O=C(Nc1ccc(Cl)cc1Cl)c1cc([N+](=O)[O-])cc2c1-c1ccc([N+](=O)[O-])cc1C2=O
[64] COc1ccc(C2CC(=O)C3=C(C2)Nc2ccccc2NC3c2ccco2)cc1 (configuration not stated)
[65] COc1cc(C2c3c(oc4ccc(Cl)cc4c3=O)C(=O)N2Cc2ccccc2Cl)ccc1O (configuration not stated)
[66] CCC(Sc1nc2ccccc2c2nc(CCn3cncc3C)nn12)C(=O)NC1CCCCC1 (configuration not stated)

compound no.,61,62,63,64,65,66
CDC25B CDK2 inh,.,-1.5,-1.5,0.79,-0.72,-1.32
HIV TAR-Tat,1.73,.,.,.,1.14,.

[67] COc1ccc(C2=NN(C(=O)CSc3nncn3C)C(c3cccc(OC)c3OC)C2)cc1 (configuration not stated)
[68] Cc1ccc(NC(=O)CCCC(=O)OCC(=O)c2ccc(C)c([N+](=O)[O-])c2)cc1
[69] Cc1ccc(NC(=O)NN(C)C)cc1NC(=O)NN(C)C
[70] CCOC(=O)C(C#N)Cc1c(C)c(C)c(C)c(C)c1C (configuration not stated)

compound no.,67,68,69,70
CDC25B CDK2 inh,-0.65,0.62,-1.67,-1.73
HIV TAR-Tat,.,.,.,.
